miR-21 reporter: qHTS Assay for Modulators of miRNAs and/orActivators of miR-21. HeLa miR-21 FLuc reporter, luciferase, 48 h. Potency, µM (titrated, usually from 38.3 µM), inactives show top-dose reporter change, positive = more light. 340,000 tested, under 10 active. AID 2288, 2010; active = well fitted rising curve with a large enough effect; inconclusive = small, poorly fitted or top-dose-only effect; inactive = no such curve, though single readings can be large or run the other way;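 note: % of control where 0% means no effect; miR-21 action dims this reporter so a rising signal means less miR-21 action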
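Luminescence from a firefly luciferase reporter carrying a miR-21 binding site downstream, stably expressed under a CMV promoter in HeLa cells that make miR-21 endogenously, reports miRNA modulation after 48 h compound exposure up to approximately 40uM final.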
Rango complex inh: qHTS Assay for Inhibitors of Rango (Ran-regulated importin-beta cargo) - Importin beta complex formation. Importin subunit beta-1 (Homo sapiens), Q14974. Rango CFP/YFP FRET sensor + importin beta, 45 min. Potency, µM (doses to about 92.2 µM), inactives show at the top dose inhibition of complex formation. hit rate 0.031% among 340,000; active = rising FRET ratio curve, often small or poorly fitted; inconclusive = mostly compound fluorescence or quenching in the first reads; inactive = flat curves in all reads;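 note: potency is the fitted concentration of half-maximal effect; 0% = DMSO wells and 100% = buffer wells lacking importin beta; nearly all actives have a fitted effect of over 15% in size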
Target sequence (Q14974 whole entry, looked up): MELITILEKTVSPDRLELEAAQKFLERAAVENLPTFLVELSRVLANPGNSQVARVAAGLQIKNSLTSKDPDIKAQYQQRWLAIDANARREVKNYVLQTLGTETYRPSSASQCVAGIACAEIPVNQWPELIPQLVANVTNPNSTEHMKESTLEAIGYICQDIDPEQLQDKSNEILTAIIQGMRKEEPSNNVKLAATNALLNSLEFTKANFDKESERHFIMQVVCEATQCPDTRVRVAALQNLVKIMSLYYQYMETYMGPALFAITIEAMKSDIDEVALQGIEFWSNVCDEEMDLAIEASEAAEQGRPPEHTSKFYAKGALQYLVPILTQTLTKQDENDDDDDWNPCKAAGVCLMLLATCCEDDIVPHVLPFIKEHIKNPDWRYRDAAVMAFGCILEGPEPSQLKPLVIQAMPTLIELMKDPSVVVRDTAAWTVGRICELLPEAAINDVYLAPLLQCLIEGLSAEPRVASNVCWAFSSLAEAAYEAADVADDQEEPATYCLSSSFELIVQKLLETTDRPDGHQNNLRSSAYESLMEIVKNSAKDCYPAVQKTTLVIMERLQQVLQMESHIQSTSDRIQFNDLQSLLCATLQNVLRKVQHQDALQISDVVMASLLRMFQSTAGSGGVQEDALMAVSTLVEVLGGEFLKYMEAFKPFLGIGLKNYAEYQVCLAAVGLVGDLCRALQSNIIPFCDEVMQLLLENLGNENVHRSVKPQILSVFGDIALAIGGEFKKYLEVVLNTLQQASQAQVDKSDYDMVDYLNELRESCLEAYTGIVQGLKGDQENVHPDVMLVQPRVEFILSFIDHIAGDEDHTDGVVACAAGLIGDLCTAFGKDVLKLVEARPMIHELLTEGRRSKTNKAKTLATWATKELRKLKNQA
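FRET biosensor Rango (snurportin 1 IBB between N-terminal EYFP and C-terminal Cerulean), 50 nM in PBS/1 mM DTT/0.02% Tween-20/0.1% BSA, preincubated 5 min RT with compound; 0.125 microM importin beta added, 45 min RT, CFP/YFP FRET ratio read.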
Rango release inh: qHTS Assay for Inhibitors of RanGTP induced Rango (Ran-regulated importin-beta cargo) - Importin beta complex dissociation; Snurportin-1 (Homo sapiens) + GTP-binding nuclear protein Ran (Homo sapiens) + Importin …; Biochemical FRET Rango-importin beta, RanGTP-induced dissociation; hit rate 0.071% among 340,000; Potency, µM (doses to about 46.1 µM), without a hit: at the highest dose activity change, negative = inhibition; active means falling FRET ratio curve, often poorly fitted, with flat reads before Ran was added; inconclusive means other falling curves, or compound fluorescence or quenching; inactive means flat or rising ratio curve;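 note: potency is the fitted concentration of half-maximal effect; % of control where 0% means no effect; nearly all actives have a fitted effect of over 45% in size; -100% = wells without RanGTP and RCC1; the record marks most hits as doubtful in a second field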
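Quantitative HTS using a FRET biosensor: 0.1 uM Rango, 0.25 uM importin beta, 0.6 uM Ran, 2 mM GTP, 0.2 uM RCC1 final, PBS with DTT, Tween-20 and BSA. Post-read taken 45 min after Ran addition.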
GLA inh pH 4.5: qHTS Assay for Inhibitors of Human alpha-Galactosidase at pH 4.5; Alpha-galactosidase A (Homo sapiens), P06280; activity change, negative = inhibition, % at 105 µM; 230,000 tested, under 10 active; purified enzyme, 4-MU-alpha-Gal fluorescence, pH 4.5; inconclusive = small, poorly fitted or top-dose-only inhibition, or a rising curve; inactive = flat fitted curve, though single readings scatter; no compound was filed as active;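 note: 0% = full activity with enzyme and -100% = basal without enzyme; dose as in the result columns while the protocol names 77 µM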
Active calls of the source: *; ? = inconclusive; · = no result given; & = joins results of further samples; [ ] = another dose, or the depositor's remark. A portion of the library; rates above refer to the full screens.

Molecule	miR-21 reporter	Rango complex inh	Rango release inh	GLA inh pH 4.5
Cc1cc(-c2ccccc2)nc(N(C)NC(=O)C(C)(C)C)c1S(C)(=O)=O	3%	0.7%	-5%	1
CC/S(=N\S(=O)(=O)c1ccc(C)cc1)c1ccccc1 (centres undefined)	-2%	1.6%	-9%	-6
CC(C)c1nc(CNC(=O)CC2C(=O)NCCN2Cc2ccoc2)cs1 (centres undefined)	3%	-1.6%	3%	-3
Nc1nonc1-n1nnc(C(=O)N/N=C/c2cc(Br)cs2)c1-c1ccccc1	25%	1.0%	0%	·
CC(=O)Nc1cccc(Oc2ncnc3scc(-c4ccccc4)c23)c1	3%	2.5%	-22%	5
O=C(COC(=O)c1ccc(F)cc1)NCCCc1ccccc1	1%	1.8%	1%	·
O=C1NCCNC1(c1c[nH]c2ccccc12)C(F)(F)F (centres undefined)	-2%	-1.9%	-16%	0
COc1ccc(/C=C/C(=O)O)cc1Cl	-7%	4.7%	1%	2
CCCOC(=O)C1[C@H]2C(=O)N(CC3CCCO3)C[C@]23C=C[C@H]1O3 (some centres undefined)	-2%	0.4%	-7%	10
CN1C(C(=O)Nc2ccc(OC(F)(F)F)cc2)=CC(c2cccs2)=NS1(=O)=O	6%&-15%	-3.0%	-21%	·
O=C(NCCC1=CCCCC1)C(=O)NCc1ccccc1	-11%	0.0%	2%	-3
CC(c1ccccc1)n1c(SCC(=O)Nc2ccccc2)n[nH]c1=O (centres undefined)	4%	7.3%	-6%	·
O=C(NNS(=O)(=O)c1ccc(F)cc1)C1CCN(Cc2cccc(F)c2)CC1	-3%	1.5%	1%	-3
NC(=O)N=Nc1c(O)[nH]c2c(Br)cc(Br)cc12	1%	·	·	4
CCOC(=O)N1CCC(NC(=O)c2ccc(CS(=O)c3ccc(Cl)cc3)o2)CC1 (centres undefined)	0%	-2.5%	0%	·
CCn1c(O)c(N=NC(=O)c2cccc(S(=O)(=O)N3CCCCC3)c2)c2ccccc21	-6%	7.4%	-13%	-22
CC(=O)Nc1ccc(NC(=O)CN2C(=O)COc3ccc(S(=O)(=O)N4CCOCC4)cc32)cc1	0%	1.5%	0%	·
O=C(Nc1ncccc1O)c1cccc(S(=O)(=O)N2CCc3ccccc32)c1	0%	2.0%	2%	-1
Cc1cc(C(=O)COc2ncnc3sccc23)c(C)n1C1CC1	-40%	?	0%	-3
O=C(Cn1cnc2c(nnn2Cc2ccc(Cl)cc2)c1=O)NCc1ccco1	-21%	-1.0%	4%	6

Compound profiles (already shown). Screens in order: miR-21 reporter, Rango complex inh, Rango release inh, GLA inh pH 4.5
O=C(NCCC1=CCCCC1)C(=O)NCc1ccccc1 across the screens: -11%, 0.0%, 2%, -3
CC(c1ccccc1)n1c(SCC(=O)Nc2ccccc2)n[nH]c1=O (centres undefined) across the screens: 4%, 7.3%, -6%, ·
CCOC(=O)N1CCC(NC(=O)c2ccc(CS(=O)c3ccc(Cl)cc3)o2)CC1 (centres undefined) across the screens: 0%, -2.5%, 0%, ·

The list goes on:
Molecule	miR-21 reporter	Rango complex inh	Rango release inh	GLA inh pH 4.5
CC(=O)Nc1nn(C)c2nc(C)cc(C)c12	1%	-1.4%	2%	-5
CN1CCC(OC(=O)c2cc3cc(Br)ccc3oc2=O)CC1	0%	?	-3%	·
CC1Oc2ccccc2N(CC(=O)NCCc2ccccc2)C1=O (centres undefined)	-12%	-0.2%	0%	-11
C/C(=N/OC(=O)c1ccc(Br)cc1)c1ccc(C)cc1	0%	6.6%	6%	·
CC(C)C(=O)Nc1ccc(O)c(-c2csc(N)n2)c1	3%	8.4%	12%	-2
COc1ccc(NC(=O)c2noc3c2CCC3)cc1	-34%	-4.3%	18%	4
Nc1c(C(=O)NCCN2CCOCC2)c2nc3ccccc3nc2n1-c1ccc2c(c1)OCO2	-11%	?	-25%	-4
CC(=O)CC(=O)Nc1ccc2ccccc2c1	-21%	3.2%	-1%	9
CC(=O)Nc1ccc(NC(=O)Nc2cccc(Cl)c2)cc1	-36%	-2.0%	-3%	·
CN(C)c1nc(-c2ccc([N+](=O)[O-])cc2)cs1	-38%	5.1%	-2%	3
CC(C)(C)NC(=O)COC(=O)c1cc(Cl)ccc1[N+](=O)[O-]	0%	?	-13%	8
COC(=O)c1cc(S(=O)(=O)N2CCOCC2)c(N2CCOCC2)cc1N1CCOCC1	-5%	0.0%	-9%	-2
CCCCNC(=O)CCCCC(=O)N/N=C/c1cccc(Cl)c1	-1%	-1.5%	-14%	-3
Cc1ccc(NC(=O)c2c([N+](=O)[O-])c(C(C)(C)C)nn2C)cc1	-13%	-0.1%	9%	-7
CCOC(=O)CC(NC(=O)c1ccco1)c1ccc(C)cc1 (centres undefined)	-7%	5.9%	7%	5
Cc1ccc(C(=O)NCC(=O)Nc2ncccc2C)s1	·	?	29%	·
Clc1ccc(-c2ncc3ccccn23)c(Cl)c1	4%	-2.5%	-19%	-3
COc1ccc(NC(=S)N2CCc3ccccc3C2)cc1OC	-40%	-5.0%	-1%	0
CC(C)C(c1nnnn1Cc1ccccc1)N(Cc1ccco1)Cc1cccs1 (centres undefined)	-3%	4.3%	0%	-4
Cc1nc2c(sc3nc(N4CCOCC4)c4c(c32)CC(C)(C)OC4)c(-c2ccc(Cl)cc2)c1C(=O)O	-6%	?	?	-10
COc1ccc(C2CCCN2C(=O)Nc2ccc(C)c(C)c2)cc1OC (centres undefined)	-16%	-5.3%	?	-3
COc1ccc(C)cc1NS(=O)(=O)c1cc(C)ccc1C	-2%	-1.4%	4%	-9
N/C(=N\N=C\c1ccco1)SC1CC(=O)N(c2ccc(C(=O)O)cc2)C1=O (centres undefined)	-1%	0.0%	6%	-5
CCc1cc(CNC(=O)c2ccc(OC3CCN(CCc4ccccc4)CC3)cc2)on1	11%	3.1%	-1%	·
COc1ccc(C2OC(=O)CC2C(=O)NCc2ccc(Cl)cc2)cc1OC (centres undefined)	-54%	-2.3%	22%	-4
COc1cccc(/C=c2\sc3nc(-c4cccs4)nn3c2=O)c1OC	-3%	-2.8%	-16%	-4
CCCn1c2ccccc2c2cnn(CC(=O)NC3CCCCC3)c(=O)c21	-2%	0.0%	2%	·
CCOC(=O)c1ccccc1NC(=O)COC(=O)c1ccccc1C(=O)N(C)c1ccccc1	·	-2.1%	-5%	·
CCOCCOC(=O)c1[nH]c2c(c1C)C(=O)CC(c1ccc(OC)c(OC)c1)C2 (centres undefined)	11%	-1.1%	-15%	·
Cc1noc(C)c1C(=O)OCC(=O)Nc1ccccc1Oc1ccccc1	-6%	-2.1%	-6%	4
CC(C)CN(CC(C)C)S(=O)(=O)N1CCC(C(=O)NCc2ccco2)CC1	-1%	-0.9%	6%	-6
Cc1cccnc1NC(=S)NC(=O)c1cccs1	-46%	-0.5%	8%	-1
COC(=O)c1ccc(CSc2nnc(-c3ccncc3)n2Cc2ccccc2)o1	-21%	-1.5%	6%	-6
COc1ccc(Cl)cc1NC(=O)CN(C)C(=O)C1CC1	·	3.9%	5%	·
Cc1cccc(C)c1NC(=O)NCCCN1CCN(c2ccccc2)CC1	-1%&-2%	0.5%	1%	-2[21.1 µM]
Cc1csc(C(C)NC(=O)c2ccc(OC3CCN(CCc4ccccc4)CC3)cc2)n1 (centres undefined)	-4%	-3.6%	1%	·
CC(C)N1CCN(C(=O)c2ccc(NC(=O)c3ccc(Br)o3)cc2)CC1	·	-1.3%	-26%	·
[O-][n+]1onc2c1CCc1nnc(-c3ccccc3)cc1-2	-1%	-0.6%	2%	10
COc1cccc(CN2CCN(Cc3ccc(O)c(OC)c3)CC2CCO)c1 (centres undefined)	-1%	0.7%	-1%	3
CCC(C)NCCOCCOc1ccc(Cl)c2ccccc12 (centres undefined)	?	0.1%	-15%	1
CCCCOP(=O)(OCCCC)C(O)c1ccc(Br)cc1 (centres undefined)	7%	-0.6%	9%	-2
c1coc(-c2ccnc(-n3cccc3)n2)c1	-3%	0.4%	14%	-3
COc1ccc(C2Nc3ccccc3NC3=C2C(=O)CC(C)(C)C3)cc1OC (centres undefined)	-5%	-0.3%	-1%	·
COC(=O)c1cc(S(=O)(=O)N2CCCCC2)c[nH]1	-2%	3.5%	27%	·
COc1ccc(NS(=O)(=O)c2ccc(OC)c(NC(=O)CCC3CCCCC3)c2)cc1	-1%	-0.4%	-5%	-5
COc1ccc([N+](=O)[O-])cc1NC(=O)c1ccco1	-1%	0.0%	-5%	-11
COc1cccc(CN2C(=O)c3ccccc3C2C(=O)NCC2CCCO2)c1 (centres undefined)	-1%	3.0%	-7%	-1
Cc1ccc(N(Cc2ccccc2)C(=O)Cc2ccc(S(=O)(=O)N3CCOCC3)s2)cc1	·	-0.9%	0%	·
COc1ccc(-c2nnc3ccc(SCC(=O)NCC4CCCO4)nn23)cc1 (centres undefined)	-4%	3.3%	8%	-9
COc1ccccc1N1CCN(/N=C(\C)c2ccc(O)cc2)CC1	-53%	0.0%	-14%	·

(more compounds)
Molecule	miR-21 reporter	Rango complex inh	Rango release inh	GLA inh pH 4.5
CC1(OC(=O)C2CCCC2)C(=O)C=C2C=C(c3ccsc3)N(CCCCO)C=C2C1=O (centres undefined)	1%	?	-19%	12&0
Cc1ccc(OCCOCCOc2cccc3cccnc23)c(Br)c1	-8%	0.8%	1%	-10
COc1cc(C2C(C(=O)Nc3ccc(F)cc3)=C(C)Nc3nc(CCCO)nn32)cc(OC)c1OC (centres undefined)	-3%	-4.8%	-14%	0
Cc1nnc(Sc2cc(NCCO)c([N+](=O)[O-])c3nonc23)s1	?	-1.9%	-26%	-5
COc1ccc2ncc(S(=O)(=O)c3ccccc3)c(N3CCN(c4ccccc4)CC3)c2c1	10%	2.4%	2%	-6
O=C(CSc1ccc2nnc(CCNC(=O)c3ccccc3)n2n1)Nc1ccccc1F	0%	-0.4%	-4%	7
O=C(NCCOc1ccccc1)C1Nc2ccc(C(F)(F)F)cc2C2c3ccccc3CC12 (centres undefined)	·	1.7%	9%	·
Cc1ccc([N+](=O)[O-])cc1NC(=O)CSc1nncn1-c1ccccn1	-2%	-0.8%	-9%	·
CN(Cc1ccc(Cl)cc1Cl)C(=O)c1cccc(S(=O)(=O)NCc2ccccc2)c1	·	-2.1%	1%	·
Cc1nn(-c2ccccc2)c(C)c1C(=O)NCc1cccs1	-12%	-1.5%	-11%	2
CN(CC1COc2ccccc2O1)C(=O)CSc1ncccn1 (centres undefined)	·	1.7%	33%	·
CCOC(=O)CCC(NC(=O)c1ccccc1C(=O)NC(CCC(=O)OCC)C(=O)OCC)C(=O)OCC (centres undefined)	0%	-0.2%	10%	-2
CC1(C)C2CCC(C2)C1(C)NC(=O)CNC1CCCCC1 (centres undefined)	1%	6.9%	?	-10
COc1ccc(Cl)cc1NC(=O)C[n+]1cccc(C)c1	9%	-1.5%	8%	·
O=C(NCCCSc1ccccc1)c1ccc(=O)[nH]c1	3%	0.7%	-16%	·
